# FGF22 binding: FGF22 (human) thermal shift binding; calls only at 9.99 µM; recombinant FGF22 thermal shift, SYPRO orange fluorescence; percent of sucrose octasulfate shift, DMSO zero; AID 651658; 340,000 tested, 1.5% active; Q9HCT0;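 active = melting point raised past a set limit in the mean and every replicate; three in four hits are not shown here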
# Target sequence (Q9HCT0 whole entry, looked up): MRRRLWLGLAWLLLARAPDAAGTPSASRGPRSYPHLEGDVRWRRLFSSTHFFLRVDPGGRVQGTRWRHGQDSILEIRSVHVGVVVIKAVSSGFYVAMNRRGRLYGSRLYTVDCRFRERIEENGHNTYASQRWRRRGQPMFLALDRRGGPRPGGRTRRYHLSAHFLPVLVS
# HNF4A DNA FP: change in binding of human HNF4 alpha to DNA | P41235 | 360,000 tested, 0.3% active | HNF4a-FITC DNA binding, fluorescence polarization, 1 h | activity change, % at 10 µM; in the data active = activity change above about 30%, passing the limit was not always enough;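 note: controls were the assay level and a saturating level of protein; the project sought stronger binding though the title names inhibitors; some compounds called inactive have numbers as strong as hits; positive values seem to mean higher polarization but the record does not say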
# Target sequence (P41235 whole entry, looked up): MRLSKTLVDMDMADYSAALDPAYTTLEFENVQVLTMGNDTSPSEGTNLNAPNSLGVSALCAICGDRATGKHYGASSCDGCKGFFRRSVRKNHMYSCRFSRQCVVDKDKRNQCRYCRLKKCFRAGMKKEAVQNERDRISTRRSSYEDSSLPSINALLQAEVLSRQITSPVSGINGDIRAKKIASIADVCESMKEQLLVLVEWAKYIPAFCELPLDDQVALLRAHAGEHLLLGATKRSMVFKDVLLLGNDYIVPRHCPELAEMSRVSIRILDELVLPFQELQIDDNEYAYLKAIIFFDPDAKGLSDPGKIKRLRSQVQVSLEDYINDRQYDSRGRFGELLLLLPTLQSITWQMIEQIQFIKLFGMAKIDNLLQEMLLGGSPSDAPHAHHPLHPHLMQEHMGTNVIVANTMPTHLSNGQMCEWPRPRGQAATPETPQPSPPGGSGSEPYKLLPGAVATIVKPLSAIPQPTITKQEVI
# B2AR ag: human beta-2 adrenergic receptor agonism by FAP; P07550; Am2.2-beta2AR cells, FAP receptor internalization, flow cytometry; reference of the scale not given here; response, % (concentration not given with the values); 340,000 tested, 0.43% active; AID 504454;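 active = response above a set limit, near 3 SD of response in nonfluorescent compounds, cut at about 42% in these data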;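 note: stock transfer was 100 nL into about 11 µL; a reference agonist was the positive control; negative values mostly stem from fluorescent compounds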
# UCH37 inh: inhibitors of human deubiquitinating enzyme UCH37; purified proteasome/UCH37, Ub-AMC cleavage fluorescence; inhibition, % (test concentration not listed); 330,000 tested, 0.33% active; AID 588478;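 active = mean of two replicates above 20%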;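 note: 0% = compound-free wells with enzyme and 100% = wells lacking proteasome; stock transfer was 100 nL into about 20 µL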
#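 Schedule: 30 min plus 25 min, room temperature / Material: human UCH37 within purified proteasomes / Technique: AMC fluorescence intensity at 355/460 nm / Buffer or medium: pH 7.4 Tris-HCl (50 mM) with ovalbumin, ATP-MgCl2, DTT / Controls: wells without proteasome as full block, compound-free enzyme plus substrate as uninhibited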
# LANA-H2A inh: blocks KSHV LANA binding to histone H2A/H2B | inhibition, % (no concentration beside the values) | cell-free LANA-H2A/H2B peptide, fluorescence polarization | 320,000 tested, 0.6% active | AID 2629; in the data active = inhibition mostly above about 10%, no sharp cut-off; inactive = mostly below about 6.7%;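 note: stock transfer was 7.5 nL into about 10 µL; 0% = median of vehicle wells and 100% = median of positive control wells; one replicate is shown; the record names a cut of 25% in any replicate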
# ALR inh: inhibitors of human sulfhydryl oxidase ALR; purified ALR, DTT oxidation, H2O2 HRP-luminol luminescence; 290,000 tested, 3.8% active; AID 485317; P55789; inhibition, % (no concentration beside the values);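 active = mean and each replicate at 75% or more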;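 note: stock transfer was 7.5 nL into about 7.5 µL; 0% = neutral wells and 100% = wells with inactivated enzyme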
# Target sequence (P55789 whole entry, looked up): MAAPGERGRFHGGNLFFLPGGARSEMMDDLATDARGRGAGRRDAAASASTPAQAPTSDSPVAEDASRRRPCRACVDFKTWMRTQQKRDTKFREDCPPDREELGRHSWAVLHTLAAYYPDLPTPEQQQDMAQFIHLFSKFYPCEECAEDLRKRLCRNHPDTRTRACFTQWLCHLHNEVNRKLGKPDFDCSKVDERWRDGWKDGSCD
# Ecoli growth: inhibitors of Escherichia coli growth | OD600 absorbance (no concentration beside the values) | OD600, 23 h; stronger effect = lower value | 330,000 tested, 0.21% active;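 active = OD600 absorbance below the run mean of sample wells minus 3.6 SD, in any replicate, cut at about 0.56 in these data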;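 note: stock transfer was 300 nL into about 60 µL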
# An asterisk follows results filed as active; i = inactive; · = not tested or not shown; + = active, no number. Only part of the results is shown; the hit share may differ from the screen's.
SMILES,FGF22 binding,HNF4A DNA FP,B2AR ag,UCH37 inh,LANA-H2A inh,ALR inh,Ecoli growth
O=C1CSC(c2ccccc2[N+](=O)[O-])N1c1cccc(F)c1 (centres undefined),i,4.7,5.7,2.9,-232.4,98.8*,0.697
COc1ccccc1C1=NOC(C)(c2sc(-c3ccc(Cl)cc3)nc2C)C1 (centres undefined),i,3.2,-5.0,0.3,-2.7,·,0.731
CCc1cc2c(NCCN3CCCCC3)ncnc2s1,·,1.4,7.3,-4.5,-3.0,-9.4,0.708
Cc1cccc(NC(=O)NNC(=O)c2sccc2-n2cccc2)c1,i,-0.6,2.2,3.9,1.8,4.9,0.689
CC(C)(C)NC(=O)Cn1c(-c2nonc2N)nc2ccccc21,·,-0.9,-1.1,0.0,3.0,·,0.692
Cc1csc(NC(=O)CSc2[nH]c(=O)ncc2C)n1,i,3.2,-3.2,2.5,1.1,99.1*,0.692
O=c1c(Cl)c(NCc2ccco2)cnn1C12CC3CC(CC(C3)C1)C2,i,2.5,-4.9,5.2,-5.8,-4.3,0.66
CCOCCc1nnc(NC(=O)c2ccc(OC)c(OC)c2)s1,·,2.0,3.5,2.5,-1.7,-12.4,0.74
COc1ccc(Cc2nc3ccccc3n2CC(=O)N/N=C/c2ccc(O)cc2)cc1OC,i,0.7,2.7,·,-3.0,99.8*,·
CC(C)C[C@H]1CN([C@@H](CC(C)C)CN2CCCC2CN2C(=S)NC[C@@H]2Cc2ccc(O)cc2)C(=S)N1CC1CCCCC1 (some centres undefined),i,0.7,-7.2,·,·,·,·
CC(C)c1ccc(N2CC(C(=O)Nc3nccs3)CC2=O)cc1 (centres undefined),·,-1.4,-8.9,1.4,0.3,-1.0,0.662
COc1cc(-c2nnn(CC(=O)N3CCOCC3)n2)cc(OC)c1OC,·,-1.9,10.3,4.2,-6.5,·,0.726
Cc1ccc(CN(c2ccc(C(=O)N3CCCC3)cc2)S(C)(=O)=O)cc1,·,0.5,-4.5,3.6,-0.4,-15.8,0.689
COc1ccc(N(C(=O)c2snc(C(N)=O)c2N)C(C(=O)NC2CCCC2)c2ccc3ncccc3c2)cc1 (centres undefined),i,-0.6,-16.3,-8.7,-2.4,·,0.719
CC1CCCCC1NC(=O)CN1C(=O)NC(C)(c2cccc(Br)c2)C1=O (centres undefined),i,2.4,-1.5,4.0,·,·,0.671
O=C1CC(c2ccc(F)cc2)Sc2ccccc2N1 (centres undefined),·,1.8,0.7,2.0,-7.3,-1.7,0.655
COc1ccccc1OCC(=O)Nc1oc(-c2ccccc2)c(-c2ccccc2)c1C#N,·,-0.2,2.6,-2.5,-5.9,1.5,0.818
O=C(/C=C/c1ccccc1Br)c1ccc2c(c1)OCO2,i,-0.4,11.3,4.1,-2.4,15.3,0.656
Cc1ccc(S(=O)(=O)Nc2cncnc2NS(=O)(=O)c2ccc(C)cc2)cc1,i,4.0,7.2,1.5,·,·,0.696
COCCn1c(SCc2nc3sc(C(=O)OC)c(C)c3c(=O)[nH]2)nc2ccccc21,·,16.9,0.4,2.4,-2.3,-6.6,0.746
O=C1C2C3C=CC(C3)C2C(=O)N1c1ccc(-c2nc3ccccc3c(=O)o2)cc1 (centres undefined),i,-3.9,4.5,-12.6,19.1,-6.1,0.687
COc1ccc2c(c1)C(SCC(=O)NCCc1ccccc1)CC(C)(C)O2 (centres undefined),i,-3.0,8.1,2.2,-4.7,-8.1,0.721
Cc1ccc(N2CCN(CC(O)COc3cccc(C)c3)CC2)cc1 (centres undefined),i,0.1,4.6,0.2,5.1,55.5,0.658
O=C(c1ccccc1)N1N=C(c2ccccc2O)CC1c1ccc(Br)cc1 (centres undefined),i,1.1,-8.8,-5.9,-7.3,-2.9,0.691
O=[N+]([O-])c1ccc(-c2nnc3n2CCCCC3)cc1,i,2.2,0.6,2.2,-5.0,-6.3,0.636
O=C(COC(=O)c1ccccc1F)Nc1ccc(S(=O)(=O)N2CCOCC2)cc1,i,-3.2,2.2,2.0,-4.7,-4.1,0.715
Cc1ccc(C)c(NC(=S)NCCSc2ccc(Cl)cc2)c1,·,-2.1,8.1,0.9,3.3,-8.1,0.702
COc1ccc(N(CC(=O)NCc2ccco2)S(C)(=O)=O)cc1Cl,·,-1.4,8.4,1.9,0.9,0.3,0.703
CS(=O)(=O)c1ccc(C(=O)OCC(=O)NC(=O)C2COc3ccccc3O2)cc1[N+](=O)[O-] (centres undefined),i,-3.3,4.9,2.8,2.2,5.7,0.727
CC(C)CCNC(=O)NC(=O)COC(=O)/C=C/c1cc(Br)ccc1F,·,0.3,-0.8,5.0,0.0,0.4,0.701
Cc1cc(=O)c2ccccc2s1,i,-0.1,-0.3,5.9,1.0,-4.0,0.672
Cn1cc(S(=O)(=O)NC[C@H]2O[C@@H](n3ccc(=O)[nH]c3=O)[C@H](O)[C@@H]2O)cn1,i,1.4,-2.4,·,·,·,·
O=C(c1ccccc1)N1CCCC(C(=O)N2CCN(c3ccccc3)CC2)C1 (centres undefined),i,3.2,-2.7,6.4,-2.1,56.5,0.675
CC(C)CC1Nc2ncnc(N3CCN(c4ccccc4)CC3)c2N(Cc2ccc(Cl)cc2)C1=O (centres undefined),i,3.9,2.7,0.7,-1.9,-4.6,0.729
O=C(c1ccc(F)cc1)C1CCN(Cc2cn[nH]c2-c2ccccc2)CC1,i,4.6,5.8,7.3,0.0,·,0.655
O=c1c2c([nH]c3ccccc13)CCCCCC2,·,-3.9,-3.1,3.5,1.4,-5.4,0.682
CC(=O)Nc1ccc(N(C(=O)CNC(=O)c2ccco2)C(C(=O)NCc2ccco2)c2ccccc2)cc1 (centres undefined),i,3.4,-10.7,1.5,2.2,0.4,0.713
COc1ccc(NC(C)=O)cc1CP(=O)(c1ccccc1)c1ccccc1,i,3.4,-2.7,2.3,-2.9,-27.9,0.702
Cc1ccc(NC(=O)CNC(=O)c2cccs2)nc1,i,3.6,0.0,4.0,4.9,22.5,0.635
CC(N)c1ccc(Cl)cc1Cl (centres undefined),·,-1.4,1.1,4.2,4.4,-0.6,0.732
COc1cccc(CNS(=O)(=O)c2cc3c4c(c2)CCN4C(=O)CC3)c1,i,-1.5,-8.9,1.7,-1.1,0.1,0.661
CC(Nc1nc(Nc2ccc(F)cc2)nc(SCC(N)=O)n1)c1ccccc1 (centres undefined),i,-2.5,10.3,0.5,0.3,-2.2,0.679
CN1CCN(c2ccc(Cl)cc2NC(=O)CN2C(=O)NC(C)(c3ccccc3)C2=O)CC1 (centres undefined),i,-1.6,9.5,2.0,5.4,-6.0,0.7
CCN(CC)c1ccc(/C=N/n2c(C)nc3ccccc3c2=O)cc1,i,3.2,21.0,·,1.4,·,·
COC(=O)c1cc(-c2ccc(F)cc2)n(-c2ccccc2)n1,i,-5.3,26.8,1.7,-3.6,-4.1,0.647
CCOC(=O)c1nn(-c2ccc(F)cc2)c2nc(CC(C)C)c(C#N)c(=O)n12,·,1.4,-4.8,-29.6,-0.5,-30.6,0.668
Cc1ccc(S(=O)(=O)Nc2ccc(N3CCCCC3)cc2)cc1,i,3.7,-1.2,1.2,5.9,98.3*,0.688
Cc1cccc(NC(=O)NNC(=O)c2ccc(C)c([N+](=O)[O-])c2)c1,i,5.5,-1.1,-1.4,-2.4,-4.6,0.711
CCOC(=O)Cn1c2ccccc2n2nc(CCC(=O)O)c(=O)nc12,+,-1.4,18.4,-160.2,0.5,-0.6,0.673
COC(=O)Oc1ccc(/C=N/NC(=O)CSCc2ccccc2Br)cc1OC,·,-0.8,11.3,·,4.3,98.9*,·

# Next part:
SMILES,FGF22 binding,HNF4A DNA FP,B2AR ag,UCH37 inh,LANA-H2A inh,ALR inh,Ecoli growth
Cc1ccc(S(=O)(=O)Cc2ccc(C(=O)NCCCN3CCN(C)CC3)o2)cc1,·,1.2,0.4,4.3,-4.7,11.0,0.665
O=C(c1ccc(F)cc1)c1c[nH]c(C(=O)NCCCN2CCOCC2)c1,·,-0.2,-7.5,4.9,-1.2,-5.3,0.703
COc1ccc(CCNC(=O)CCNC(=O)c2ccc(Cl)cc2)cc1OC,i,-1.7,10.6,0.0,4.7,·,0.695
COc1ccc(NC(=O)c2cccc(S(=O)(=O)N3CCCCC3)c2)c(OC)c1,i,-5.3,9.3,2.3,4.8,0.7,0.661
c1ccc(-n2c3ccccc3c3ccccc32)cc1,i,2.8,0.9,1.9,-12.4,-6.1,0.642
CC1CCC(NC(=O)CN(C)S(=O)(=O)c2ccc3c(c2)c(=O)n(C)c(=O)n3C)CC1 (centres undefined),i,-1.1,2.8,3.4,-0.9,-2.9,0.721
CCOc1ccc(NC(=O)Cn2nnc(-c3ccc(C(N)=O)cc3)n2)cc1S(=O)(=O)N1CCCC1,i,1.8,0.1,0.4,·,·,0.688
COC(=O)c1ccc(CNC(=O)c2ccc3c(c2)S(=O)(=O)N=C2CCCCCN23)cc1,i,-2.0,3.3,2.3,1.1,0.0,0.697
CCOC(=O)c1cc(C#N)c(Oc2ccccc2OC)nc1-c1ccccc1,·,-1.4,-1.3,0.1,2.3,0.0,0.775
CCN(CC)CCN1C(=O)C(=O)/C(=C(/O)c2cccc(OC)c2)C1c1ccccn1 (centres undefined),·,2.9,10.1,6.7,3.6,-11.3,0.728
O=C(CCN1CCCCC1c1cccnc1)NCc1ccccc1 (centres undefined),·,-3.2,-1.4,5.1,2.8,-3.0,0.774
S=C1N(c2ccccc2)C(c2ccc(Cl)cc2)N2CCCN12 (centres undefined),·,3.2,4.0,0.0,1.7,-0.9,0.768
NC(=O)COc1cccc2cccnc12,i,2.8,0.0,-3.5,3.9,-3.9,0.711
CC(C)(C)CC(=O)Nc1nn[nH]n1,i,0.9,1.5,1.6,4.0,-4.1,0.66
Cc1ccc(N2C(=O)C3C(C2=O)C2C=CC3C23CC3)cc1 (centres undefined),·,1.8,-2.0,3.3,9.9,-1.8,0.713
O=C(NCC(c1cccs1)N1CCOCC1)C1CCN(S(=O)(=O)c2cccc(C(F)(F)F)c2)CC1 (centres undefined),i,2.1,5.3,-0.9,·,·,0.701
CCN(CC(=O)NCc1cccs1)C(=O)C1CC(=O)N(c2ccc(OC)cc2OC)C1 (centres undefined),i,1.2,-1.9,2.0,-6.0,-9.7,0.674
CCn1c(/C(C#N)=C(\O)CCc2ccccc2)nc2ccccc21,·,9.3,-2.8,·,0.6,·,·
COc1ccc(N2C(=O)CC(c3ccc(OC(C)C)cc3)C2=O)cc1 (centres undefined),i,0.3,9.7,3.1,1.6,-5.8,0.731
COc1ccc(Nc2nc(C)c(-c3ccccc3)s2)cc1,·,0.3,12.0,-9.8,-0.7,60.8,0.645
O=C(Nc1ccc2c(c1)OCO2)C1CCCN(S(=O)(=O)c2cccs2)C1 (centres undefined),·,3.7,10.0,1.3,4.1,·,0.744
O=C(O)c1ccc(/C=N/Nc2nnnn2-c2ccccc2)cc1,·,0.6,-1.4,·,-4.5,-1.6,·
O=C(Nc1ccc(Br)cc1)c1ccc(F)c(S(=O)(=O)N2CCN(c3ccccn3)CC2)c1,i,-2.3,-12.7,3.9,3.0,-20.2,0.674
CCN(CC)C(=O)c1[nH]cnc1C(=O)NCc1ccc(CNC(=O)OC(C)(C)C)cc1,i,-4.6,9.6,1.1,-3.4,-1.4,0.656
O=C(CCl)Nc1nc(-c2ccco2)c(-c2ccco2)s1,i,1.9,9.7,3.4,8.7,-23.8,0.686
O=C(Cn1c2c(c(-c3ccccc3)cc1=O)CCCC2)N1CCCCCC1,i,-6.1,-3.7,2.8,2.2,-48.4,0.771
Nc1nnc(SCC(=O)OCc2ccc(F)cc2)s1,·,-1.8,0.2,2.6,0.0,3.8,0.664
COc1cc(C(=O)NCC2CCCCC2)ccc1OCc1c(C)noc1C,i,1.6,-4.0,5.1,-6.8,-0.3,0.692

# High-throughput results deposited in PubChem BioAssay by several laboratories.
